PrP 5UTR inh – inhibition of PrP 5' UTR reporter expression; 0.35% of 340,000 active; cell-based PrP 5' UTR mRNA reporter, plate reader; AID 488862, 2010; inhibition, % (no concentration beside the values);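 active = every replicate at 50% or more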;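 also: 0 = median of the neutral control wells; tested in H4 reporter cells; numbers are from one replicate; inactives centre near -14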
Sa ugtP lethal – growth inhibition of ugtP-null S. aureus, primary screen, RN4220 ugtP deletion, OD600 | 16 h; some inactives read as strong as hits | growth inhibition, % (no concentration beside the values) | 0.54% of 330,000 active | AID 1259309, 2017;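 active = z-score under -3 and OD600 up to 0.15 on both plates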;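 also: plate controls were untreated wells for no effect and antibiotic for full effect; wells of about 80 µL received 100 nL stock; the first replicate is given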
Mtb hypoxia rep – PubChem AID 1159583; M. tuberculosis hypoxia-regulated fluorescent reporter, fluorescence; fluorescence inhibition, % (test concentration not listed); 0.1% of 300,000 active;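 active = 35 to 45% if threefold the growth effect, above 45% if 1.5-fold the growth effect; inactive = the rest, general growth blockers included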;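 also: wells of about 50 µL received 100 nL stock; 0% = vehicle wells and 100% = reference inhibitor wells; whole bacteria with a GFP reporter of the hypoxia response; strong numbers were not always called active; many hits fall short of the cut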
Sa RN4220 lethal – growth inhibition of S. aureus RN4220, primary screen, OD600 | AID 1259311, 2017 | inhibition, % (no concentration beside the values) | 0.33% of 330,000 active | 16 h;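 active = z-score of -3 or lower and OD600 up to 0.18 on both plates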;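 also: plate controls were untreated cells for no effect and reference antibiotic for full effect; stock transfer was 100 nL into about 80 µL; one replicate is shown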
Autofluor counter – compound fluorescence in toxin protease inhibitor counterscreen. compound autofluorescence counterscreen, microsphere flow cytometry; stronger effect = higher value. 3.1% of 360,000 active. fluorescence intensity (no concentration beside the values);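 active = at least 3 SD above the mean of all compounds, about 16000 in these data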;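 also: 100 nL of 1 mM stock went into each well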
BJeLR lethal – MLPCN primary cell-based screen for lethality selective to Ras in HRASV12 cells; BJeLR (HRASV12) viability, CellTiter-Glo ATP luminescence, 48 h; reference of the scale not given here; inhibition, % (test concentration not listed); 0.17% of 300,000 active; AID 1554, 2009;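 active = replicate mean above 50%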;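 also: 50 nL library stock added to about 25 µL; numbers are from one replicate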
Mtb hypoxia rep growth – further read-out of Mtb hypoxia rep, marked with its call; growth inhibition, %; measured here: M. tuberculosis growth (absorbance);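 0% = vehicle and 100% = reference antibiotic; read after six days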
* = called active by the depositor; · = no result given.

SMILES	PrP 5UTR inh	Sa ugtP lethal	Mtb hypoxia rep	Mtb hypoxia rep growth	Sa RN4220 lethal	Autofluor counter	BJeLR lethal
CCOC(=O)C1=C(N)N(c2ccc(N3CCCCC3)cc2)C(=O)C1	-20	-5	-4	-3	0.6	3038	9
O=C(Nc1ccc([N+](=O)[O-])cc1)N1CCCCCC1	-13	-2	5	7	0.5	5381	-8
CC(C)(C)NS(=O)(=O)c1ccc(C(=O)Nc2ccc3c(c2)OCO3)cc1	-43	3	6	2	1.7	4218	-11
CCN(CC)CCNC(=O)c1cn(CC)c2ccc(S(=O)(=O)N(C)C3CCCCC3)cc2c1=O	3	2	7	6	0.8	5725	12
Cc1ccc2[nH]c(C)c(CC(=O)O)c2c1	-15	1	3	1	3.7	4407	-4
CCOc1cccc(-c2nn3c(-c4ccccn4)nnc3s2)c1	-2	0	2	-2	7.0	16821*	-4
CCCCN(C)C(=O)CSc1nc(NCc2ccc(OC)cc2)c2ccccc2n1	-16	-8	6	10	2.4	10185	0
Cc1ccc(CNC(=O)COC(=O)c2ccc(Br)o2)cc1	-3	-1	5	5	0.1	·	·
COc1ccc(NC(C(=O)Nc2cccc(C(C)=O)c2)c2ccccc2)cc1 (centres undefined)	-19	-5	5	2	3.1	6936	3
CCOC(=O)c1[nH]c(C)c(C(=O)OCC(=O)N(Cc2ccccc2)C(C)C)c1C	-13	2	-5	5	1.4	4082	·
Cc1nc(NCCCN2CCOCC2)c2cnn(-c3ccccc3)c2n1	-27	8	20	12	4.0	3525	·
COC(=O)c1cc(OC)ccc1-c1ccc(OC)cc1	-8	24	-5	0	-2.4	7033	-4
CC(C)CNS(=O)(=O)c1ccc(CCC(=O)NCc2ccncc2)cc1	-11	4	-1	-6	5.6	4176	1
COc1cc(C(=O)Oc2c(CN3CCOCC3)cc(Cl)c3cccnc23)cc(OC)c1OC	25	5	4	-4	8.8	4250	18
CN(CCCC(=O)Nc1ccc(OC(F)F)cc1)S(=O)(=O)c1ccc(F)cc1	-9	14	2	6	-1.9	5764	6
CCC(C)[C@H](NC(=O)C1CC(=O)N(c2ccc3c(c2)OCCO3)C1)C(=O)N1CCCCC1 (some centres undefined)	-13	-1	5	8	1.9	5091	-1
COc1ccccc1NC(=O)CNC(=O)c1ccc(F)cc1	-29	-3	·	·	-2.0	2716	-7
O=C(Nc1ccccc1C(=O)N1CCOCC1)c1ccncc1	11	7	·	·	4.5	3552	-7
Oc1ccc(Br)cc1-c1ccnn1-c1ccccc1	-20	-2	14	4	9.9	3265	27
COc1ccc(NC(=O)COC(=O)CNS(=O)(=O)/C=C/c2ccccc2)cc1OC	-15	9	3	2	3.3	2767	·
Cc1cccc(NC(=O)C2CCN(S(=O)(=O)c3cccs3)CC2)n1	13	11	8	4	2.3	17032*	1
CC(C)CCn1c(-c2nonc2N)nc2ccccc21	-2	14	·	·	3.5	3532	-1
Cn1c(SCc2ccc(F)cc2)nnc1-c1cccs1	-87	-1	19	23	3.8	10302	-4
CCCCCOC(=O)C1=C(C)NC(=O)NC1c1ccc(N(C)C)cc1 (centres undefined)	-9	2	14	8	7.8	3702	4
CC1=C(C(N)=O)C(c2ccccc2F)n2nc(CCCO)nc2N1 (centres undefined)	-13	2	9	2	-1.1	3461	5
CC(=O)C(=Cc1ccc(C(=O)O)cc1)C(C)=O	-8	9	-2	5	3.0	4615	6
COc1ccc(OC)c2[nH]c(=O)c(CCNC(=O)c3ccc4c(c3)OCO4)cc12	-25	10	-6	4	4.4	2585	-4
c1ccc(CN2C3=NCCCN3c3ccccc32)cc1	-13	6	·	·	-4.7	4841	0
Cc1cccc(C2c3[nH]c4ccccc4c3CCN2C(=O)Cc2nc(-c3ccccc3)n[nH]2)n1 (centres undefined)	-11	-10	0	-4	5.3	2222	7
CCS(=O)(=O)c1ccc(C(=O)NC2CC2)c(Cl)c1Cl	-26	0	14	12	4.9	3632	6
Cc1ccsc1C(=O)OCC(=O)N1CCN(C(=O)c2ccco2)CC1	-13	-7	-3	14	1.1	2025	0
COc1cccc(C2=NOC(C(=O)NCc3ccccc3)C2)c1 (centres undefined)	·	-3	-12	1	-4.7	9584	-3
O=C1CCCC(=O)N1c1ccc(N2CCN(c3ccccc3)CC2)c([N+](=O)[O-])c1	-14	0	-1	0	4.7	2537	-1
CC(C)C(=O)Nc1cccc(NC(=S)NC(=O)C(c2ccccc2)c2ccccc2)c1	-8	-4	-5	2	-0.8	·	-12
Cc1cccc(N2C(=O)N3C4c5ccccc5OCC4C(c4ccccc4)[C@]3(C)C2=O)c1 (some centres undefined)	·	-1	6	8	-2.1	·	·
COc1ccc(CNC(=O)CN(C(=O)CCC(=O)Nc2ccccn2)c2ccc(C)cc2)cc1	-23	-1	7	4	-0.6	5542	-6
CCOC(=O)N1CCC(NC(=O)CS(=O)Cc2nc(-c3ccc(Cl)cc3)oc2C)CC1 (centres undefined)	-2	2	1	7	1.0	5239	-4
CC(NC(=O)c1ccccc1)C(=O)OCn1nnc2ccccc2c1=O (centres undefined)	-3	2	22	25	3.7	2809	·
CC1CC1C(=O)Nc1ccc(S(=O)(=O)N2CCCCC2)cc1 (centres undefined)	-15	3	-1	7	2.3	·	·
CC(NCc1ccccc1OC1CCCC1)c1ccccc1 (centres undefined)	1	-3	-8	-15	2.8	4494	4
O=C(OCC1CCNCC1)c1ccc2c(c1)OCO2	-11	1	15	8	6.1	3854	3
OC(COc1ccc2c(c1)OCO2)CN1CCN(c2ccccc2)CC1 (centres undefined)	-2	10	-3	-6	-0.1	2548	-4
O=C(Cc1ccc(F)cc1)N/N=C/c1ccc2c(c1)OCO2	-67	·	·	·	·	2230	7
COc1ccc(C)cc1NC(=O)C1CCCN1S(=O)(=O)c1ccc2c(c1)CCC(=O)N2 (centres undefined)	-8	3	·	·	2.8	4013	·
COc1ccccc1NC(=O)NC1CCCc2ccccc21 (centres undefined)	-13	-5	8	-9	3.1	5229	-1
O=C(NCc1ccccc1)c1cccc(COc2cccc(Cl)c2)c1	-32	9	·	·	-8.6	4567	-4
Cc1ccc(Nc2cc(C)nc(-c3ccccc3O)n2)cc1	-22	1	3	8	-7.3	9664	-3
O=c1oc2ccccc2cc1-c1csc(Cc2nc(-c3ccc(Br)cc3)cs2)n1	-5	-3	1	7	0.1	16508*	7

Some values from above:
Result for `OC(COc1ccc2c(c1)OCO2)CN1CCN(c2ccccc2)CC1` (centres undefined) in BJeLR lethal: -4
Result for `O=C(Cc1ccc(F)cc1)N/N=C/c1ccc2c(c1)OCO2` in BJeLR lethal: 7

Next compounds.
SMILES	PrP 5UTR inh	Sa ugtP lethal	Mtb hypoxia rep	Mtb hypoxia rep growth	Sa RN4220 lethal	Autofluor counter	BJeLR lethal
COCC(C)N=C1NN=C(c2ccc(NC(C)=O)cc2)CS1 (centres undefined)	-15	4	-8	8	11	4724	5
COc1ccccc1/C=C1/C(=N/O)C2CCN1CC2	-20	·	·	·	·	2641	2
CC1CC(C)CN(C(=O)CCC(=O)Nc2nnc(C3CCCCC3)s2)C1 (centres undefined)	-23	9	8	3	1.2	4317	-8
CCOc1ccc(NC(=O)CN(C)C(=O)c2c(C)nn(-c3ccc(F)cc3)c2Cl)cc1OCC	-22	5	15	5	2.4	6158	-10
Cc1cccc(N(Cc2cc3ccc(C)cc3[nH]c2=O)C(=O)c2ccco2)c1	-18	21	0	6	4.9	4188	-3
CCOCCc1nn2c(=O)cc(CSCC(=O)Nc3cccc(C)c3C)nc2s1	-15	5	4	-4	2.3	5194	-5
CC1CN(C(C)CO)C(=O)c2cccc(NS(=O)(=O)c3cn(C)cn3)c2OC1CN(C)Cc1ccc(C(=O)O)cc1 (centres undefined)	·	4	12	6	1.0	·	·
CC[C@]12c3[nH]c4cc(-c5ccco5)ccc4c3CCN1C(=O)[C@@H](CC(=O)NCc1cccc(C(F)(F)F)c1)C[C@@H]2C(=O)N1CCN(C(=O)c2ccco2)CC1	-6	-7	-9	9	-3.3	4195	·
Cc1nnc(NC(=O)CSc2nc3c(c(=O)n(C)c(=O)n3C)n2C(C)C)s1	-23	3	2	-4	3.0	4381	-13
O=C1c2ccccc2C(=O)N1CCCc1nc2ccccc2c(=O)n1-c1cccnc1	·	-1	·	·	3.0	·	8
CSCCC(NC(=O)c1cc([N+](=O)[O-])cc([N+](=O)[O-])c1)c1nc2ccccc2[nH]1 (centres undefined)	-29	12	-14	21	12	10418	7
O=C1NCCn2nc3ccccc3c21	-19	-6	10	2	4.0	4189	·

Sorted by count of non-hydrogen atoms (descending): 5 of the compounds above.
SMILES	PrP 5UTR inh	Sa ugtP lethal	Mtb hypoxia rep	Mtb hypoxia rep growth	Sa RN4220 lethal	Autofluor counter	BJeLR lethal
CC1CN(C(C)CO)C(=O)c2cccc(NS(=O)(=O)c3cn(C)cn3)c2OC1CN(C)Cc1ccc(C(=O)O)cc1 (centres undefined)	·	4	12	6	1.0	·	·
CCOc1ccc(NC(=O)CN(C)C(=O)c2c(C)nn(-c3ccc(F)cc3)c2Cl)cc1OCC	-22	5	15	5	2.4	6158	-10
Cc1cccc(N(Cc2cc3ccc(C)cc3[nH]c2=O)C(=O)c2ccco2)c1	-18	21	0	6	4.9	4188	-3
Cc1nnc(NC(=O)CSc2nc3c(c(=O)n(C)c(=O)n3C)n2C(C)C)s1	-23	3	2	-4	3.0	4381	-13
COCC(C)N=C1NN=C(c2ccc(NC(C)=O)cc2)CS1 (centres undefined)	-15	4	-8	8	11	4724	5

New compounds follow:
SMILES	PrP 5UTR inh	Sa ugtP lethal	Mtb hypoxia rep	Mtb hypoxia rep growth	Sa RN4220 lethal	Autofluor counter	BJeLR lethal
Cc1ccc(-n2nnnc2SCC(=O)c2cc(C)n(-c3cc(C)on3)c2C)c(C)c1	-4	7	1	2	2.2	11555	16
CCCCCCN1C2=NCCCN2c2ccccc21	-7	12	4	14	2.1	4041	5
CCN1CCCC1CNC(=O)C1CCN(C(=O)c2cc3sccc3n2Cc2ccc(F)cc2)CC1 (centres undefined)	-15	0	13	5	0.8	5024	3
COc1ccc(NC(=O)CC(c2ccco2)C(C)C)cc1 (centres undefined)	-19	17	9	7	-2.8	3828	0
COC(=O)C=Cc1ccc2c(c1)S(=O)(=O)N(Cc1ccc(OC)cc1)C2CC(=O)OC (centres undefined)	·	2	8	5	7.9	·	·
CCn1cnc2c1c(=O)n(CC(=O)O)c(=O)n2Cc1ccccc1	-16	12	-1	-9	3.0	3920	-7
CC(=O)Nc1ccc(NC(=O)CSc2cn(CC(=O)N3CCOCC3)c3ccccc23)cc1	-18	-6	-5	1	-3.4	5924	7
Cc1ccc(Cl)cc1N1CCN(S(C)(=O)=O)CC1	-32	12	9	1	3.7	11481	4
CC(=O)Nc1ccc(S(=O)(=O)N2CCN(C(=O)c3ncoc3-c3ccccc3F)CC2)cc1	-13	6	-9	5	1.1	3845	1
CCN1/C(=C2\OC(=S)N(C)C2=O)Sc2ccccc21	-46	-3	3	10	6.0	4639	-2
CCOC(=O)C1CCCN(C(=O)c2ccc(C)c(NC(=O)C3=C(C)OCCS3)c2)C1 (centres undefined)	-1	8	-1	0	3.6	4037	-12
N#CC1(NC(=O)COC(=O)c2nccnc2N)CCCCC1	-6	2	12	3	1.9	5478	4
O=C(NCc1ccccn1)C1CCN(S(=O)(=O)N2CCCCC2)CC1	-3	18	4	8	6.0	7354	2
C=CCN(c1ccc(OC)cc1)S(=O)(=O)c1ccc(Cl)c(C(=O)OCC(=O)c2c(N)n(C)c(=O)n(C)c2=O)c1	-5	1	-5	2	4.5	6019	·
Cc1ccc(S(=O)(=O)N2CCc3ccccc3CC2)cc1	-2	9	6	12	1.6	3583	·
CCC(C(=O)NCCCN1CC(C)CC(C)C1)n1nc(C)c2sc3ccccc3c2c1=O (centres undefined)	-23	3	10	0	-2.6	6152	-1
COC(=O)C1CCN(C(=O)CN2C(=O)NC(CC(C)C)C2=O)CC1 (centres undefined)	-12	6	5	4	2.5	2650	·
CCN(CC)CCOC(=O)C(O)(c1ccccc1)c1ccccc1	-13	3	-6	-2	3.4	5458	·
CN(c1ccc(O)cc1)c1nc(-c2ccccc2)cs1	-77	59	-4	4	-7.9	10467	·
O=C(NN=Cc1cc2c(cc1Br)OCO2)c1c[nH]c2ccccc12	·	0	12	10	1.9	·	·
COc1ccc(C(=O)OCCc2ccc(O)cc2)cc1	-54	-1	12	0	11	3966	9
O=C(O)CNC(=O)c1ccc(N2CCOCC2)cc1[N+](=O)[O-]	-25	-1	3	3	3.8	4172	3

High-throughput results: PubChem BioAssay, several laboratories

Rows were taken by chance; about 4% have a hit in one of these screens.
